Mtb growth = M. tuberculosis H37Rv growth inhibitors, H37Rv strain (AID 1626); inhibition, % at 10 µM, or IC50 in µM where a hit was titrated; M. tuberculosis H37Rv growth inhibition; higher % means a stronger effect; 0.95% of 220,000 active;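 active means confirmed in a dose series; inconclusive means inhibition above 80% but not taken into the dose series; inactive means below 80% or under 30% at every dose of the series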;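 further: bacteria incubated seven days before Alamar blue readout; 0% = bacteria only wells and 100% = bacteria with antibiotic wells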
Mtb bLac sens = beta-lactam sensitization of Mtb H37Rv. M. tuberculosis H37Rv growth with meropenem, percent inhibition; hits of this screen are not shown here. inhibition, % at 25 µM. 0.27% of 330,000 active;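 active means about 74% or more and at least 40 points above the plate without the antibiotic, then above 30% in a dose series; inconclusive means first-round hits that could not be retested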;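 further: growth measured after seven days incubation then overnight dye step; 0% = bacteria only wells and 100% = bacteria with antibiotic; twin plates without the antibiotic show which effects depend on it; some results filed as inactive read as strong as hits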
YopH inh = inhibitors of Yersinia enterocolitica YopH tyrosine phosphatase; inhibition, %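 (about 10 µM by stock and volumes)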; fluorescence Ex485/Em525; 0.16% of 140,000 active;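 active means inhibition of 50% or more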;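 further: controls were vehicle for no effect and minimum signal wells for full effect; inactives centre near -20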
Arbovirus anti = antivirals against arbovirus infection. arbovirus infection cell-based antiviral screen. inhibition, % at 10 µM. 0.37% of 200,000 active;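 active means inhibition from about 30%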;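 further: bluetongue infection of BSR cells; cell survival read as ATP light after 72 h; 0% = infected wells without compound and 100% = uninfected wells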
RecA intein inh = blocks M. tuberculosis RecA intein splicing; P9WHJ3; cell-free RecA intein splicing, fluorescence; inhibition, %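 (about 9 µM by stock and volumes)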; 0.75% of 290,000 active; AID 2221; in the data active means inhibition above about 30%; inconclusive means no clear call, values can overlap the other calls;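 further: 0% = vehicle wells and 100% = reference inhibitor control wells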
Target sequence (P9WHJ3 whole entry, looked up): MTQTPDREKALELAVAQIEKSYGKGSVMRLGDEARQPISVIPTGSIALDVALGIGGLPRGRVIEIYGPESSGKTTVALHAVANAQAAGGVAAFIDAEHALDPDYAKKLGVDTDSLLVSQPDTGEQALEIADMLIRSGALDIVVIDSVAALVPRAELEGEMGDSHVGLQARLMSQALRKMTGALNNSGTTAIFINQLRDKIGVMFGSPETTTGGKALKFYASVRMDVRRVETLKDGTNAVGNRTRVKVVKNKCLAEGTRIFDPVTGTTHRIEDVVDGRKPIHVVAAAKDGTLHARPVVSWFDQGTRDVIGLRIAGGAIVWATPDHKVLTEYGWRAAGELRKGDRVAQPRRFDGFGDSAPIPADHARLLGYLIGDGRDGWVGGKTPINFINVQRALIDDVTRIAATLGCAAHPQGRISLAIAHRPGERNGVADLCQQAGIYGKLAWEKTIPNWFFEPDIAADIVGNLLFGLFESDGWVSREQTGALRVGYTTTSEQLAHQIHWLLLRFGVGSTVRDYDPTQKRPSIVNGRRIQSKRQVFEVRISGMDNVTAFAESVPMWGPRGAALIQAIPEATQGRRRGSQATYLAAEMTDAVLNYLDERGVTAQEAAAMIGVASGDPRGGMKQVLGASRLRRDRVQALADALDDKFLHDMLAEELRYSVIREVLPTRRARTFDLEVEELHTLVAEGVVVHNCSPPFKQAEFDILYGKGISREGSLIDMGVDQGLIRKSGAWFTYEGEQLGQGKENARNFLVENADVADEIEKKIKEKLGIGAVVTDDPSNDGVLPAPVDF
Arbovirus anti repeat = second read-out of Arbovirus anti, no call of its own (marks repeat the call); inhibition, %; measured here: 10K subset replicate screen; many hits read low in the repeat;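 first of two repeat runs on a subset; 0% = infected and 100% = uninfected wells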
* marks the source's active call; other numbers are inactive results; u = inconclusive; x = not tested or not shown. An excerpt; count on the stated rates, not on these rows.

Start of the data: the first 21 entries as a preview:
SMILES	Mtb growth	Mtb bLac sens	YopH inh	Arbovirus anti	RecA intein inh	others
CCC(C)(C)c1ccc(OCCCC[n+]2ccc(C)cc2)c(C(C)(C)CC)c1	u	100	x	-27	0.0
C/C(Cn1cnc([N+](=O)[O-])n1)=N\NC(=O)c1cccnc1	-1%	-1	-18	-2	0.3
CCC(=O)Nc1c(-c2ccc3ccccc3c2)nc2ccccn12	x	0	x	x	-0.8
CCCNC(=O)C1CCN(S(=O)(=O)c2ccc(-c3nn[nH]n3)cc2)CC1	-4%	2	-37	3	-1.7
Cc1nc2sccn2c(=O)c1S(=O)(=O)N1CCN(c2cccc(C(F)(F)F)c2)CC1	x	4	x	x	3.6
CCN(CC)CC(O)COc1ccccc1C(=O)CCc1ccccc1 (centres undefined)	-10%	3	-42	15	2.1	Arbovirus anti repeat=5
COc1ccc(C(=O)COC(=O)c2ccc(-n3cnnn3)cc2)c(OC)c1	x	-2	x	x	-2.0
CCc1cccc(OCC(=O)Nc2ccc(S(=O)(=O)Nc3onc(C)c3C)cc2)c1	x	0	x	4	2.8	Arbovirus anti repeat=2
CCn1c(SCC(=O)Nc2ccccc2)nc2c1c(=O)n(C)c(=O)n2C	-2%	-7	-18	11	-0.3
CCn1c(CN2CCOCC2)nnc1SCC(=O)Nc1cccc(C)c1	x	-17	x	x	-2.9
CC(C)(C)Nc1nc(N2CCCC2)nc(N2CCCC2)n1	14%	-7	1	-23	1.4
COc1ccc(C)cc1-n1nnnc1SCC(=O)c1cc(C)n(Cc2ccco2)c1C	-3%	3	-31	1	x
COc1ccccc1NC(=O)CN1CCN(CC(=O)Nc2cc(NC(C)=O)ccc2OC)CC1	0%	-15	-47	-6	-0.1
COc1cc(Cc2nccc3cc(OC)c(OC)cc23)c(NC(C)=O)cc1OC	x	-1	x	x	0.7
CC(=O)Nc1nonc1-c1nc2ccccc2n1Cc1ccccc1	0%	2	-13	-7	-3.8
CCOc1cc(S(=O)(=O)N2CCN(c3ccc(F)cc3)CC2)c(OCC)cc1-n1cnnn1	-4%	3	-44	-6	-2.2
CC1Cc2ccccc2N1C(=O)Cn1c(=O)oc2cc(S(=O)(=O)NC3CCCC3)ccc21 (centres undefined)	3%	-2	-33	-10	1.4
O=C(O)CC(NC(=O)C12CC3CC(CC(C3)C1)C2)c1cccc([N+](=O)[O-])c1 (centres undefined)	8%	-4	x	10	-1.1
O=C(CN(C(=O)c1csnn1)c1ccccc1F)NC1CCCCC1	x	-4	x	x	0.4
O=C(Nc1cccc(-c2nc3ncccc3o2)c1)c1cc2ccccc2o1	-7%	88	-33	27	8.1
CSc1cccc(NC(=O)C2CCN(S(=O)(=O)c3cnc[nH]3)CC2)c1	x	-9	x	x	-0.3

This part in full, from the start:
SMILES	Mtb growth	Mtb bLac sens	YopH inh	Arbovirus anti	RecA intein inh	others
CCC(C)(C)c1ccc(OCCCC[n+]2ccc(C)cc2)c(C(C)(C)CC)c1	u	100	x	-27	0.0
C/C(Cn1cnc([N+](=O)[O-])n1)=N\NC(=O)c1cccnc1	-1%	-1	-18	-2	0.3
CCC(=O)Nc1c(-c2ccc3ccccc3c2)nc2ccccn12	x	0	x	x	-0.8
CCCNC(=O)C1CCN(S(=O)(=O)c2ccc(-c3nn[nH]n3)cc2)CC1	-4%	2	-37	3	-1.7
Cc1nc2sccn2c(=O)c1S(=O)(=O)N1CCN(c2cccc(C(F)(F)F)c2)CC1	x	4	x	x	3.6
CCN(CC)CC(O)COc1ccccc1C(=O)CCc1ccccc1 (centres undefined)	-10%	3	-42	15	2.1	Arbovirus anti repeat=5
COc1ccc(C(=O)COC(=O)c2ccc(-n3cnnn3)cc2)c(OC)c1	x	-2	x	x	-2.0
CCc1cccc(OCC(=O)Nc2ccc(S(=O)(=O)Nc3onc(C)c3C)cc2)c1	x	0	x	4	2.8	Arbovirus anti repeat=2
CCn1c(SCC(=O)Nc2ccccc2)nc2c1c(=O)n(C)c(=O)n2C	-2%	-7	-18	11	-0.3
CCn1c(CN2CCOCC2)nnc1SCC(=O)Nc1cccc(C)c1	x	-17	x	x	-2.9
CC(C)(C)Nc1nc(N2CCCC2)nc(N2CCCC2)n1	14%	-7	1	-23	1.4
COc1ccc(C)cc1-n1nnnc1SCC(=O)c1cc(C)n(Cc2ccco2)c1C	-3%	3	-31	1	x
COc1ccccc1NC(=O)CN1CCN(CC(=O)Nc2cc(NC(C)=O)ccc2OC)CC1	0%	-15	-47	-6	-0.1
COc1cc(Cc2nccc3cc(OC)c(OC)cc23)c(NC(C)=O)cc1OC	x	-1	x	x	0.7
CC(=O)Nc1nonc1-c1nc2ccccc2n1Cc1ccccc1	0%	2	-13	-7	-3.8
CCOc1cc(S(=O)(=O)N2CCN(c3ccc(F)cc3)CC2)c(OCC)cc1-n1cnnn1	-4%	3	-44	-6	-2.2
CC1Cc2ccccc2N1C(=O)Cn1c(=O)oc2cc(S(=O)(=O)NC3CCCC3)ccc21 (centres undefined)	3%	-2	-33	-10	1.4
O=C(O)CC(NC(=O)C12CC3CC(CC(C3)C1)C2)c1cccc([N+](=O)[O-])c1 (centres undefined)	8%	-4	x	10	-1.1
O=C(CN(C(=O)c1csnn1)c1ccccc1F)NC1CCCCC1	x	-4	x	x	0.4
O=C(Nc1cccc(-c2nc3ncccc3o2)c1)c1cc2ccccc2o1	-7%	88	-33	27	8.1
CSc1cccc(NC(=O)C2CCN(S(=O)(=O)c3cnc[nH]3)CC2)c1	x	-9	x	x	-0.3
O=C1c2ccccc2N2C(=O)c3ccccc3[C@H]2N1c1ccccc1	-11%	-10	6	30*	1.9
Cc1[nH]c2ccccc2c1C(=O)C(=O)Nc1ccc2c(c1)OCCO2	x	-3	x	x	-1.3
Cc1cccc(NC(=O)CSc2nnc(CNC(=O)c3ccco3)n2C)c1	x	-2	x	x	2.2
CC(C)CCN1CCN(Cc2cccn2-c2ccc(Cl)cn2)CC1CCO (centres undefined)	8%	-4	x	-2	x
Remaining list, next part.
SMILES	Mtb growth	Mtb bLac sens	YopH inh	Arbovirus anti	RecA intein inh	others
COC(=O)/C=C(\Oc1ccccc1)C1(O)CCCCC1	0%	0	x	x	-0.5
Cc1cc(C)n(CCN(C)C(=O)C2CCC(=O)N(CCc3cccc(F)c3)C2)n1 (centres undefined)	x	7	x	x	1.8
S=C1NC2(CCCCC2)Cc2ccccc21	5%	2	-30	17	0.5
COc1ccc(N(C=O)C(C(=O)Nc2c(C)cccc2C)c2ccccc2)cc1 (centres undefined)	x	0	x	x	3.8
CC(C)N1CCN(Cc2ccc(-c3ccccc3)cc2)CC1CCO (centres undefined)	x	-4	x	x	0.4
CC(C)CC1=NN(C(=O)c2ccncc2)C(O)(C(F)(F)F)C1 (centres undefined)	-17%	18	-17	9	-6.0
O=C(O)C1=C[C@H](c2ccc(C(F)(F)F)cc2)C[C@H](OCc2ccc(CO)cc2)O1	3%	-3	x	2	0.1
CN(CC(=O)NC1CCCCCCC1)S(=O)(=O)c1cccc2cccnc12	-3%	-1	-48	-3	x	Arbovirus anti repeat=-1
COc1ccc(C2=NOC(C(=O)Nc3ccc4c(c3)OCO4)C2)cc1 (centres undefined)	x	2	x	x	19
CSc1nn2c(C(F)(F)F)cc(C(F)(F)F)nc2c1C(=O)O	7%	2	x	x	-0.1
COc1cccc(C(=O)Nc2cnn(C(C)C)c2)c1	75%	-14	x	1	-1.4
O=[N+]([O-])c1c(-c2cn[nH]c2)n[nH]c1-c1cn[nH]c1	1%	-4	x	x	-1.0
Cc1ccc2c(c1)Oc1ccc(NC(=O)CCl)cc1C(=O)N2	3%	97	x	-35	60*
Cc1ccc(Nc2nc(-c3ccc(F)cc3)cs2)nc1	x	23	x	x	1.7
Cc1ccc2nc(C(O)C(O)c3nc4ccc(C)cc4[nH]3)[nH]c2c1 (centres undefined)	-5%	2	-4	13	-1.9
O=C(CSc1n[nH]c(=O)n1Cc1ccco1)c1ccc2c(c1)OCCO2	x	0	x	x	2.8
O=C(CSc1ccccc1)Nc1cc(Cl)ccc1Oc1ccccc1	16%	13	-9	31*	1.5
Cn1c(CCNC(=O)C2CCCCC2)nc2cc(NC(=O)c3cccs3)ccc21	6%	x	x	0	-2.3
COC(=O)c1ccncc1C(=O)Nc1ccc(Oc2ncc(C(F)(F)F)cc2Cl)cc1	x	-1	x	x	-1.0
COc1ccc(CCN2C(=O)CC(NNC(=O)c3ccccc3Br)C2=O)cc1 (centres undefined)	-3%	4	-6	3	-2.8
CCOc1cc(/C=N/NC(=O)N/N=C/c2ccc(O)c(OCC)c2)ccc1O	x	6	x	x	-1.1
CCn1c2ccccc2c2nc3cc(S(=O)(=O)N4CCOCC4)ccc3nc21	x	x	-17	-2	5.1
CCOC(=O)CN(C(=O)CSc1nnc(Cc2ccccc2)n1-c1ccc(C)cc1)c1ccccc1	-1%	3	-29	-3	6.7
O=C(c1nc2ccccn2c1CNCC1OCCc2ccccc21)N1CCOCC1 (centres undefined)	2%	-3	x	3	-0.3
COc1ccccc1CN1CC(C(=O)N2CCC(C(=O)c3ccccc3)CC2)CCC1=O (centres undefined)	x	-4	x	x	-1.7

Random excerpt: two entries already listed
SMILES	Mtb growth	Mtb bLac sens	YopH inh	Arbovirus anti	RecA intein inh	others
O=[N+]([O-])c1c(-c2cn[nH]c2)n[nH]c1-c1cn[nH]c1	1%	-4	x	x	-1.0
COc1ccc(CCN2C(=O)CC(NNC(=O)c3ccccc3Br)C2=O)cc1 (centres undefined)	-3%	4	-6	3	-2.8

Other compounds:
SMILES	Mtb growth	Mtb bLac sens	YopH inh	Arbovirus anti	RecA intein inh	others
C=CCC(NC(C)c1ccccc1)c1ccco1 (centres undefined)	0%	x	-29	9	4.8
COc1cc(/C=N/Nc2nncn2/N=C/c2ccc(O)c(OC)c2)ccc1O	0%	4	x	0	x
CC1=C(C)CC(C(=O)NCCc2ccccc2)C(C(=O)O)C1 (centres undefined)	0%	3	-16	-2	0.3
CCOc1ccc(N2C(=O)CC(n3nc(C)cc3C)C2=O)cc1 (centres undefined)	-6%	-12	-33	5	-2.2
COc1ccc(-n2c(SCCC(=O)O)nnc2-c2ccncc2)cc1	-3%	1	-33	-4	1.5
O=C(CN1C(=O)c2cccc3cccc(c23)C1=O)N1CCN(Cc2ccc3c(c2)OCO3)CC1	-1%	1	-45	-1	-0.2
CCN(C(=O)CCS(=O)(=O)c1ccc(Br)cc1)c1ccc2c(c1)OCO2	-6%	-7	-14	-4	x
Cc1ccc(C(C(=O)NC2CCCC2)N(C(=O)Cc2cccs2)c2ccc3c(c2)OCCO3)cc1 (centres undefined)	2%	8	-32	-15	0.7
CCNC(=O)COc1cccc(C(=O)NCc2ccccc2)c1	0%	-1	-16	2	-0.8
CC(C)(C)c1ccc(-c2nc(O)c(CC(=O)O)s2)cc1	-12%	-5	x	x	-6.5
O=C(Nc1ccccc1C(=O)NCc1ccccc1)c1ccccc1Br	-1%	6	-35	5	1.5
CC(Sc1nnc(Cn2c(=O)sc3ccccc32)n1C)c1ccccc1 (centres undefined)	1%	-6	-42	-8	-1.0	Arbovirus anti repeat=-13
CC(=O)N1CC(C)Sc2ccc(S(=O)(=O)N3CCCCC3)cc21 (centres undefined)	x	-1	x	x	4.5
CC(=O)c1ccccc1OCCOc1ccccc1C(C)=O	x	-10	x	x	-3.3
COc1ccc(F)c(CN2CCCC(CNS(=O)(=O)c3cccc4cccnc34)C2)c1 (centres undefined)	x	5	x	x	2.7
CCOC(=O)N1CCC(NC(=O)c2ccc3c(c2)N=C(C)c2ccccc2S3)CC1	x	-1	x	x	2.0
Cc1c(Cl)cccc1-n1c(SCC(=O)N2CCC(C(=O)O)CC2)nc2ccccc2c1=O	x	2	x	x	-1.7
CC1CCCCN1C(=O)COc1ccccc1F (centres undefined)	-1%	-4	x	17	1.7
CCOC(=O)CC1C(=O)NCCN1C(=O)COc1ccc(C(C)(C)C)cc1 (centres undefined)	x	4	x	x	0.1
CC1=NN(c2ccccc2)C(=O)/C1=C\C=C1\N(C)c2ccccc2C1(C)C	15%	66	-23	22	2.5
C=CCSc1nc2c(c(=O)[nH]1)C(c1ccccc1)C(C#N)=C(N)O2 (centres undefined)	5%	-6	x	x	-1.2
COc1ccc(NC(=O)CSc2nc(N)c(-c3ccccc3)c(=O)[nH]2)cc1	-12%	12	-13	-5	-0.9
CC(N)C12CC3CC(C1)CC(C(C)N)(C3)C2 (centres undefined)	2%	-5	-35	-27	-0.3
COc1cccc(CNC(=O)C2CCN(S(=O)(=O)c3cccc4cccnc34)CC2)c1	x	1	-19	1	x	Arbovirus anti repeat=0

Bioassay records deposited in PubChem BioAssay by several laboratories.
